gsp ag = activates gsp, the McCune-Albright syndrome mutation | AID 624287 | Potency, µM (titrated, usually from 76.9 µM), for the others: at the top dose activation (cAMP increase), actives largely listed as activators | hit rate 0.13% among 340,000 | gsp mutant cells, cAMP HTRF, 30 min; control for the full effect not named in the record; active = well fitted activation curve with a large enough effect; inconclusive = small, poorly fitted or top-dose-only effect, or another doubt; inactive = no such curve, though single readings can be large or run the other way; cell line not stated here;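 note: phosphodiesterase inhibitor Ro 20-1724 added with compounds to block cAMP breakdown; potency is the fitted concentration of half-maximal effect; nearly all actives have a fitted effect of over 60% in size; about a fifth of the inactives were tested at one dose only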
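Cells in DMEM/10% FBS with G418 were pretreated with compounds in DMSO plus […] (300 uM stock) for 30 min at 37C. cAMP was measured by HTRF (cAMP-d2 plus anti-cAMP antibody-K) after 30 min at room temperature.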
D2 agonist = agonists of human D2 dopamine receptor (beta-arrestin); DiscoveRx PathHunter D2 beta-arrestin, luminescence, 90 min; 100% = 57 uM dopamine signal; activation, % (concentration not given with the values); P14416; AID 624465; hit rate 0.084% among 360,000; in the data active = activation above about 40%; inconclusive = about 15% to 40%; inactive = below about 15%; note: compound concentration not given in the record; the text of the record calls up to 30% inactive
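Agonist mode: compounds alone added to overnight-plated D2 PathHunter cells for 90 min at 37 C, with 57 uM final dopamine (EC100) defining full response. Beta-arrestin recruitment detected by chemiluminescent reagent, read after 1 h at ambient temperature.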
D2 potentiator = human D2 receptor positive allosteric modulation | DiscoveRx D2 beta-arrestin cells, luminescence, 90 min; 100% = 57 uM dopamine signal | potentiation, % (no concentration beside the values) | hit rate 0.23% among 360,000 | AID 624464; active = potentiation of 50% or more; inconclusive = 30% to 50%; inactive = 30% or less;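 note: compound concentration not given in the record; tested on top of an EC20 dose of dopamine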
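D2 cells co-treated with compound plus 50 nM dopamine (EC20) for 90 min at 37 deg C to detect potentiation. Beta-arrestin recruitment was read as enzyme-fragment luminescence after 1 h at ambient temperature. Full response was set by 57 uM dopamine.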
gsp antagonist = antagonists of gsp mutant (McCune-Albright syndrome); gsp-mutant cells, cAMP HTRF, 30 min; control for the full effect not named in the record; Potency, µM (doses to about 76.9 µM), inactives show at the highest dose activity change, negative = inhibition, hits mostly inhibitors; hit rate 0.4% among 340,000; active = falling curve of any shape with a large fitted effect; inconclusive = falling curve, mostly with a smaller effect; inactive = flat or rising curve; cell line not stated here;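 note: intracellular cAMP measured with PDE inhibitor Ro 20-1724 present during compound exposure; potency is the fitted concentration of half-maximal effect; % is set by controls: 0 for no effect and ±100 for the full control effect; nearly all actives have a fitted effect of over 65% in size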
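Cells in G418 medium, seeded 16-24 h, 37C; buffer exchange to DPBS + 1 mM CaCl2, 0.5 mM MgCl2, 0.05% BSA; cpds in DMSO + […] (300 uM stock), 30 min 37C; HTRF cAMP detection.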
Six1-Eya2 blk = Six1/Eya2 interaction inhibition; Q15475+O00167; activity change, % (test concentration not listed); hit rate 0.56% among 360,000; AID 651725; AlphaScreen GST-Six1/His-Eya2 binding, biochemical; active compounds read low; control for the full effect not named in the record; in the data active = activity change below about -65%; inconclusive = about -30% to -65%; inactive = above about -30%; note: % is set by controls: 0 for no effect and ±100 for the full control effect
Target sequence (O00167 whole entry, looked up): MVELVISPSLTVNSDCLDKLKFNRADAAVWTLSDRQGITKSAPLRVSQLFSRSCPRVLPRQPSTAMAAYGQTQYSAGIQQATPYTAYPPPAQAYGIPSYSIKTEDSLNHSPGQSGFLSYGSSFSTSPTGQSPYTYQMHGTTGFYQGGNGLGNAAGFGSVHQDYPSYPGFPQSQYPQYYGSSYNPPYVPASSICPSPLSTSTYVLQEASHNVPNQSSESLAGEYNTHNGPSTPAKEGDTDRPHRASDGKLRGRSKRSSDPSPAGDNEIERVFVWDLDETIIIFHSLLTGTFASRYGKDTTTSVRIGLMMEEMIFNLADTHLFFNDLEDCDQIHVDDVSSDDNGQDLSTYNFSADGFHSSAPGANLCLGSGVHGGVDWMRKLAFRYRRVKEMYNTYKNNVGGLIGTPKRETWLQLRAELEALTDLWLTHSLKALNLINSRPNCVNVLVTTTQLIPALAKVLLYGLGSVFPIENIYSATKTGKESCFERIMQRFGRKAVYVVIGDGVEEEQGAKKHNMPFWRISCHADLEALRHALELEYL
Target sequence (Q15475 whole entry, looked up): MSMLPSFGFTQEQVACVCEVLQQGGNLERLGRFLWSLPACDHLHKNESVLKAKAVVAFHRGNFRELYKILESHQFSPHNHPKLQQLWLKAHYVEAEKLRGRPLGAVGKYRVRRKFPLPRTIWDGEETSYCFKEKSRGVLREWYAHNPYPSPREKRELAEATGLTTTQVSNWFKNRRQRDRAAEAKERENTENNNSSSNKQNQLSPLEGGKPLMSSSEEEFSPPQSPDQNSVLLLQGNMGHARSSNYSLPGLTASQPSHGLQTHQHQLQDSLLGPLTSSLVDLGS
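Six1/Eya2 binding was read as AlphaScreen signal after compounds were pinned into GST-Six1 plus His-tagged Eya2 (5X stock 250/500 nM) in pH 8.0 Tris/NaCl/TCEP buffer, beads added, then incubated 1 h, 37 C, dark.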
CtBP-E1A inh = CtBP/E1A binding inhibition. AlphaScreen GST-E1A/His-CtBP binding, 1536-well; active compounds read low; control for the full effect not named in the record. activity change, % (test concentration not listed). hit rate 0.49% among 340,000; in the data active means activity change below about -65%; inconclusive means about -30% to -65%; inactive means above about -30%; note: % is set by controls: 0 for no effect and ±100 for the full control effect
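GST-E1A and His-tagged CtBP (125 nM each as 5X stock) were preincubated with pin-transferred compound for 2 h at 37 °C in the dark, then glutathione donor and nickel acceptor beads were added for 1 h before AlphaScreen reading.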
* = called active by the depositor; ? = inconclusive; · = no result given; [ ] = remark or other dose.

Value order – gsp ag, D2 agonist, D2 potentiator, gsp antagonist, Six1-Eya2 blk, CtBP-E1A inh
> CCCNC(=O)c1onc(CSc2ccc(Cl)cc2)c1C(=O)NCC1CC1
 : ·, -0.9, -42.4, -0.3%, 17.8, 0.0
> COc1ccc2oc(C(=O)NCCN3CCOCC3)c(C)c2c1OC
 : 6.2%, -6.2, -5.9, 6.4%, -15.7, 23.5
> CSc1ncnc2c1ncn2CCCNCc1ccccc1
 : ?, -11.2, -6.3, ·, -1.9, -0.7
> CC(/C=N/n1c(-c2cccnc2)n[nH]c1=S)=C\c1ccco1
 : 9.8%[15.4 µM], -4.7, -12.3, -22.9%, -14.4, -13.8
> Cc1cc(N/N=C/c2ccc(Cl)cc2)nc(NCc2ccccc2)n1
 : -33.5%, 3.5, -2.7, -7.6%, -14.9, 1.4
> CCc1nnc(NC(=O)CSc2nnc(C)n2CC2CCCO2)s1 (centres undefined)
 : -0.9%, 1.1, 10.2, 1.1%, 7.2, 4.7
> CCOC(=O)Cn1c(=O)c(-c2ccccc2NCc2ccccc2)nc2ccccc21
 : 11.7%, -2.8, -6.5, 25.6%, -19.1, -14.5
> CNc1cc(C)c(C#N)c2nc3ccccc3n12
 : 10.0%[15.4 µM], 3.1, -0.4, -12.5%, ?, ?
> Cc1ccc(C(C)C)c(OCC(=O)OCc2c(C)noc2C)c1
 : -5.7%, -0.3, -10.2, 0.7%, 25.8, 29.1
> Cc1ccc(CCNC(=O)C2CCCN(S(=O)(=O)c3cccs3)C2)cc1 (centres undefined)
 : -13.3%, -4.9, -14.4, -10.9%, -3.7, 0.0
> O=C(O)c1ccccc1C(=O)Nc1ccc(-c2csc(-c3ccccc3)n2)cc1
 : 2.7%, 0.7, 6.4, 3.3%, -3.2, -5.5
> O=C(COC(=O)c1ccc2c(c1)C(=O)N(Cc1ccncc1)C2=O)Nc1cccc2ccccc12
 : -10.8%[15.4 µM], -3.4, -1.6, ?, 12.1, 0.0
> Cc1cc(C)c(C2=CSC3=NS(=O)(=O)CCN23)c(C)c1
 : -0.2%[15.4 µM], 3.9, -8.5, ·, 2.1, 22.1
> CCN1CCN(C(=O)c2ccc3c(c2)N(Cc2ccccc2)C(=O)c2ccccc2S3(=O)=O)CC1
 : -141.9%[inhibitor], -2.2, -12.6, -10.9%, 0.4, -5.6
> COc1ccc(OC)c(Nc2nc(NCc3ccco3)nc(N)c2[N+](=O)[O-])c1
 : -3.6%[15.4 µM], 2.6, -0.2, 9.8%, -20.3, -23.6

Profiles as entered above. Values in the order: gsp ag, D2 agonist, D2 potentiator, gsp antagonist, Six1-Eya2 blk, CtBP-E1A inh
Results for O=C(O)c1ccccc1C(=O)Nc1ccc(-c2csc(-c3ccccc3)n2)cc1 : 2.7%, 0.7, 6.4, 3.3%, -3.2, -5.5
Results for COc1ccc2oc(C(=O)NCCN3CCOCC3)c(C)c2c1OC : 6.2%, -6.2, -5.9, 6.4%, -15.7, 23.5
Results for CCOC(=O)Cn1c(=O)c(-c2ccccc2NCc2ccccc2)nc2ccccc21 : 11.7%, -2.8, -6.5, 25.6%, -19.1, -14.5
Results for CCc1nnc(NC(=O)CSc2nnc(C)n2CC2CCCO2)s1 (centres undefined) : -0.9%, 1.1, 10.2, 1.1%, 7.2, 4.7
Results for CNc1cc(C)c(C#N)c2nc3ccccc3n12 : 10.0%[15.4 µM], 3.1, -0.4, -12.5%, ?, ?

Later entries.
Value order – gsp ag, D2 agonist, D2 potentiator, gsp antagonist, Six1-Eya2 blk, CtBP-E1A inh
> O=C(N/N=C/c1c[nH]c2ccccc12)c1ccc([N+](=O)[O-])cc1Cl
 : 2.9%, ?, -2.3, -2.4%, -2.5, ·
> c1ccc(CN2CCC3(CC2)Nc2ccccc2CO3)cc1
 : 18.2%, -3.4, -7.2, 1.6%, -1.7, -10.7
> CCN(C(=O)CSc1cc(C)c2ccccc2n1)c1c(N)n(Cc2ccccc2)c(=O)[nH]c1=O
 : -9.7%, -0.3, -6.8, 3.3%, -1.8, ·
> COc1cccc(NC(=O)CS(=O)(=O)Cc2nc(-c3ccc(C)cc3)oc2C)c1
 : ?, 0.0, -1.4, -7.1%, -6.0, -7.6
> CCOc1ccc(CN2CCN(C3CCC3)CC2CCO)cc1 (centres undefined)
 : -24.0%, 1.5, -19.1, 11.7%, 2.9, -12.0
> c1csc(Cc2nc3ccccc3[nH]2)c1
 : -28.1%, -1.3, 4.2, -5.4%, 4.0, 5.5
> CC(C)OC(=O)c1ccc(NC(=O)c2ccccc2)cc1
 : -9.7%[15.4 µM], 1.5, -18.1, -1.8%, 16.2, -7.4
> Cc1nc(-c2ccc(Cl)cc2)sc1C1(C)CC(c2c(Cl)cccc2Cl)=NO1 (centres undefined)
 : ·, -2.6, -28.6, -0.7%, -1.0, 7.0
> CC(=O)NC(Cc1ccccc1C)C(=O)NC1CCN(C(=O)c2ccc(C)cc2)CC1 (centres undefined)
 : -1.4%, -0.8, -0.3, 8.0%, -1.9, 3.1
> CCOc1ccc(NC(=O)[C@@H]2CCC(=O)N2C2OC(=O)c3ccccc32)cc1 (some centres undefined)
 : ·, -2.0, -13.7, 2.5%, 8.3, 4.0
> COc1ccc(CCNC(=O)C2CCN(C(=O)c3ccccc3)CC2)cc1
 : -5.1%, -1.4, -1.7, 8.3%, -0.4, 7.3
> Cc1ccc(NC(=O)c2cc(S(=O)(=O)N3CCCCC3)ccc2N2CCOCC2)cc1
 : -49.0%[inhibitor], 2.0, -14.7, ·, -6.8, 4.1
> O=C(O)COc1ccccc1/C=N/NC(=O)CN1CCN(Cc2ccc(Cl)cc2)CC1
 : -2.0%, 0.2, 0.7, 6.9%, 12.5, 0.0
> CC(C)NC(=O)c1cc2n(n1)C(C(F)(F)F)CC(c1ccco1)N2 (centres undefined)
 : 17.1%, 3.2, 6.3, 3.6%, -0.2, ·
> CCC(C)C(NC(=O)C1CCC(C)CC1)C(=O)NCc1ccccn1 (centres undefined)
 : 7.0%, -2.9, -15.7, 10.0%, 2.6, 7.4
> CN(CC(=O)Nc1ccc(OC(F)(F)F)cc1)C(=O)c1ccccc1SCC(=O)N1CCCC1
 : 11.6%, -2.9, -12.8, -0.2%, -2.7, 17.2
> O=C(CSc1nc2ccccc2o1)Nc1nccs1
 : 1.3%, 1.6, -10.0, -5.5%, -5.5, -13.5

Reprinted at random: five compounds from above
Value order – gsp ag, D2 agonist, D2 potentiator, gsp antagonist, Six1-Eya2 blk, CtBP-E1A inh
> Cc1ccc(C(C)C)c(OCC(=O)OCc2c(C)noc2C)c1
 : -5.7%, -0.3, -10.2, 0.7%, 25.8, 29.1
> CN(CC(=O)Nc1ccc(OC(F)(F)F)cc1)C(=O)c1ccccc1SCC(=O)N1CCCC1
 : 11.6%, -2.9, -12.8, -0.2%, -2.7, 17.2
> CNc1cc(C)c(C#N)c2nc3ccccc3n12
 : 10.0%[15.4 µM], 3.1, -0.4, -12.5%, ?, ?
> O=C(O)c1ccccc1C(=O)Nc1ccc(-c2csc(-c3ccccc3)n2)cc1
 : 2.7%, 0.7, 6.4, 3.3%, -3.2, -5.5
> Cc1cc(N/N=C/c2ccc(Cl)cc2)nc(NCc2ccccc2)n1
 : -33.5%, 3.5, -2.7, -7.6%, -14.9, 1.4
